Calb FLC: C. albicans growth modulation with fluconazole; hit rate 0.57% among 300,000; growth inhibition, % (no concentration beside the values); AID 1979; C. albicans CaCi-2 (fluconazole-resistant clinical isolate) + fluconazole, Alamar Blue growth, 48 h;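 active = most replicates above 75%; inconclusive = exactly half above 75%; inactive = most below 75%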;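 also: all wells also contain fluconazole at 8 µg/ml as a sub-toxic cotreatment; 0% = median of DMSO wells and 100% = median of geldanamycin control wells; wells of about 8 µL received 7.5 nL stock; the first replicate is given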
UCH37 inh: blocks the human deubiquitinase UCH37. purified proteasome/UCH37, Ub-AMC cleavage fluorescence. inhibition, % (concentration not given with the values). hit rate 0.33% among 330,000. AID 588478;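 active = mean of two replicates above 20%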;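 also: 0% = compound-free wells with enzyme and 100% = wells lacking proteasome; stock transfer was 100 nL into about 20 µL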
Target sequence (Q9Y5K5 whole entry, looked up): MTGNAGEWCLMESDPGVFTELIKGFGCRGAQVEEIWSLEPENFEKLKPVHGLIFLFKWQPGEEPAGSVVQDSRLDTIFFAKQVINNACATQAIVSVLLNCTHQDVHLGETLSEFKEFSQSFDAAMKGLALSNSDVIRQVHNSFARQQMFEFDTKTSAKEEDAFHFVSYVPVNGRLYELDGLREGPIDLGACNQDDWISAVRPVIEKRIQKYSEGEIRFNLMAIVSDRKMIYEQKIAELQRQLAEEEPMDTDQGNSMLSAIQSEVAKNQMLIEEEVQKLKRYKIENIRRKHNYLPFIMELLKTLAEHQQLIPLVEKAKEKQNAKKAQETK
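Material: Human UCH37 enzyme supplied as purified proteasome complex | Schedule: 30 min preincubation with enzyme, 25 min cleavage at room temperature | Detection: AMC fluorescence 355/460 nm | Measure: % inhibition of Ub-AMC cleavage fluorescence | Controls: Wells without proteasome as full block, compound-free enzyme plus substrate as uninhibited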
Bfl-1 A1 inh: inhibitors of the anti-apoptotic protein A1, read as caspase activation; MEF A1-2A-BIM cells, Caspase-Glo 3/7 luminescence, 3 h; percent of clofoctol response, vehicle zero; hit rate 0.066% among 330,000; AID 2462; caspase activation, % (test concentration not listed);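 active = over half of replicate activation scores above 10%, or exactly half above 10 with the replicate mean above 10; inconclusive = replicate mean below 10 yet half the replicates above 10; inactive = over half of replicates below 10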;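 also: wells of about 30 µL received 50 nL stock; many hits fall short of the cut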
Beta apoptosis: blocks beta cell apoptosis. INS-1E cytokine-induced death, ATP luminescence, 48 h; percent of positive-control rescue, neutral wells zero. protection from apoptosis, % (test concentration not listed). hit rate 0.8% among 300,000. AID 435005;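 active = all replicates at 75% or more, or half of them and the mean; inconclusive = half reach 75% but not the mean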;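 also: 0% = cytokine-treated negative control wells and 100% = positive control rescue; higher means more ATP so stronger rescue from cytokine killing; wells of about 40 µL received 100 nL stock; the first replicate is given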
T cruzi inh: T. cruzi replication inhibition; AID 1885; hit rate 1.4% among 300,000; inhibition, % (no concentration beside the values); T. cruzi beta-gal in NIH3T3, luminescence, 90 h;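 active = mean inhibition across valid replicates above about 55%, limit read from the data; inconclusive = mean below that limit but half or more replicates reach it; inactive = mean below it, under half of replicates reach it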;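 also: signal also drops with host cell toxicity which is not excluded here; 0% = plate median of DMSO wells and 100% = zero luminescence signal; higher percent means less beta-gal luminescence so fewer parasites; stock transfer was 50 nL into about 50 µL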
LANA-H2A inh: blocks KSHV LANA binding to histone H2A/H2B; hit rate 0.6% among 320,000; cell-free LANA-H2A/H2B peptide, fluorescence polarization; Q9QR71; inhibition, % (concentration not given with the values); AID 2629; in the data active = inhibition mostly above about 10%, no sharp cut-off; inactive = mostly below about 6.7%;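 also: stock transfer was 7.5 nL into about 10 µL; 0% = median of vehicle wells and 100% = median of positive control wells; one replicate is shown; the record names a cut of 25% in any replicate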
RanGTP-Imp inh: inhibitors of RanGTP-importin-beta interaction, primary screen, biochemical, FRET, CFP-Ran, YFP-importin-beta, homogeneous; AID 2216; cell-free CFP-Ran/YFP-importin-beta FRET ratio; hit rate 1.1% among 300,000; inhibition, % (no concentration beside the values);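 active = most replicates above 15%; inconclusive = exactly half above 15%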;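 also: 0% = DMSO wells and 100% = Ran loaded with GDP instead of GTP; wells of about 40 µL received 100 nL stock; the first replicate is given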
B2AR ag: activates human beta-2 adrenergic receptor causing internalization; response, % (no concentration beside the values); AID 504454; hit rate 0.43% among 340,000; P07550; Am2.2-beta2AR cells, FAP receptor internalization, flow cytometry; reference of the scale not given here;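 active = response above a set limit, near 3 SD of response in nonfluorescent compounds, cut at about 42% in these data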;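 also: stock transfer was 100 nL into about 11 µL; a reference agonist was the positive control; negative values mostly stem from fluorescent compounds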
Target sequence (P07550 whole entry, looked up): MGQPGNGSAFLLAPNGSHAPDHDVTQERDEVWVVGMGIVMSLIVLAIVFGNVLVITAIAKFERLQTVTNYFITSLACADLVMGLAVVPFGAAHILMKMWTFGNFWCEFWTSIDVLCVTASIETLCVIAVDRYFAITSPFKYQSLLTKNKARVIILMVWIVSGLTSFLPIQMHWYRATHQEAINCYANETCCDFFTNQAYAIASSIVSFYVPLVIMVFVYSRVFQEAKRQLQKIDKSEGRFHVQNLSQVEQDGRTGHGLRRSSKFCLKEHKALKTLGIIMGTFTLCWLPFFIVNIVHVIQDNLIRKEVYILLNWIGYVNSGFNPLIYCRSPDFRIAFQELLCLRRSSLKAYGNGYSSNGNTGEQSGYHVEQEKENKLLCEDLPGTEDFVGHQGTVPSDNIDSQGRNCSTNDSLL
The depositor's hits bear a star.

How did CC(=O)/C(C=Nc1noc(C)c1Br)=C(\C)O do in these assays?
Calb FLC: 16; UCH37 inh: 5.8; Bfl-1 A1 inh: 0.4; Beta apoptosis: -8; T cruzi inh: -24; LANA-H2A inh: -0.3; RanGTP-Imp inh: 5.2; B2AR ag: 1

How did COC(=O)Cn1cc(S(=O)(=O)NCc2ccc(C)cc2)c2cc([N+](=O)[O-])ccc21 do in these assays?
Calb FLC: 4; UCH37 inh: 2.1; Bfl-1 A1 inh: -0.5; Beta apoptosis: -1; T cruzi inh: -6; LANA-H2A inh: -0.8; RanGTP-Imp inh: -1.8; B2AR ag: 7

How did COc1ccc(Nc2nc(N)c([N+](=O)[O-])c(NCc3ccccc3)n2)cc1 do in these assays?
Calb FLC: 2; UCH37 inh: 7.3; Bfl-1 A1 inh: -0.1; Beta apoptosis: -8; T cruzi inh: 19; LANA-H2A inh: -6.5; RanGTP-Imp inh: -2.0; B2AR ag: 3

How did C1CCN=C(Nc2nc3c(s2)CCCC3)CC1 do in these assays?
Calb FLC: -8; UCH37 inh: 2.4; Bfl-1 A1 inh: -1.9; Beta apoptosis: -1; T cruzi inh: 12; LANA-H2A inh: -4.4; RanGTP-Imp inh: -1.2; B2AR ag: -5

What do the screens show for `COc1cccc(C(=O)O/N=C(\N)c2ccc([N+](=O)[O-])cc2)c1OC`?
Calb FLC: -10; UCH37 inh: 1.5; Bfl-1 A1 inh: -0.1; Beta apoptosis: 4; T cruzi inh: -1; LANA-H2A inh: -1.1; RanGTP-Imp inh: -1.2; B2AR ag: 5

Results for COc1cccc(OCc2ccc(Cl)cc2)c1C#N ?
Calb FLC: 9; UCH37 inh: 3.8; Bfl-1 A1 inh: -5.7; Beta apoptosis: -2; T cruzi inh: 31; LANA-H2A inh: -5.0; RanGTP-Imp inh: -3.4; B2AR ag: 9

What do the screens show for `OCCN1CCN(c2cc(C(F)(F)F)nc3ccccc23)CC1`?
Calb FLC: 2; UCH37 inh: 9.1; Bfl-1 A1 inh: 0.0; Beta apoptosis: 2; T cruzi inh: 1; LANA-H2A inh: 0.9; RanGTP-Imp inh: -0.8; B2AR ag: -8

What do the screens show for `Cc1ccccc1NC(=O)CCCn1nc(C)c2c(C)n(-c3ccccc3)nc2c1=O`?
Calb FLC: -7; UCH37 inh: 2.4; Bfl-1 A1 inh: 0.1; Beta apoptosis: 0; T cruzi inh: -3; LANA-H2A inh: -1.5; RanGTP-Imp inh: -1.0; B2AR ag: -9

Results for CN(Cc1ccccc1)c1nc2c(c(=O)[nH]c(=O)n2C)n1C ?
Calb FLC: 7; UCH37 inh: 2.9; Bfl-1 A1 inh: 0.0; Beta apoptosis: 7; T cruzi inh: -4; LANA-H2A inh: 1.1; RanGTP-Imp inh: -9.7; B2AR ag: -5

How did CCOc1ccc(N(CC(=O)Nc2ccccc2C(=O)N2CCOCC2)S(=O)(=O)c2ccc(F)cc2)cc1 do in these assays?
Calb FLC: -11; UCH37 inh: 5.0; Bfl-1 A1 inh: -0.7; Beta apoptosis: -4; T cruzi inh: 7; LANA-H2A inh: 4.0; RanGTP-Imp inh: 3.3; B2AR ag: -2

What do the screens show for `COc1ccc2c(c1)CCc1c(C(=O)N3CCOCC3)noc1-2`?
Calb FLC: 19; UCH37 inh: 3.9; Bfl-1 A1 inh: 0.6; Beta apoptosis: -6; T cruzi inh: 1; LANA-H2A inh: -2.5; RanGTP-Imp inh: 2.6; B2AR ag: -5

What do the screens show for `Cc1ccc(NC(=O)COC(=O)CCc2nc3ccccc3n2-c2ccccc2)c(C)c1`?
Calb FLC: -25; UCH37 inh: 3.9; Bfl-1 A1 inh: 1.5; Beta apoptosis: -5; T cruzi inh: 12; LANA-H2A inh: -1.4; RanGTP-Imp inh: 5.2; B2AR ag: 1

Results for CCC(C(=O)NC1CCCC1)N(C(=O)Cn1nnc(-c2ccc(C)o2)n1)c1ccc(OC)c(OC)c1 (stereo not given) ?
Calb FLC: 0; UCH37 inh: -2.6; Bfl-1 A1 inh: -0.6; Beta apoptosis: -1; T cruzi inh: 4; LANA-H2A inh: -3.9; RanGTP-Imp inh: -1.3; B2AR ag: -4

Results for COc1ccc(C(=O)OCC(=O)Nc2ccc3[nH]c(=O)[nH]c3c2)cc1 ?
Calb FLC: -4; UCH37 inh: 5.1; Bfl-1 A1 inh: -0.4; T cruzi inh: -4; LANA-H2A inh: -0.6; RanGTP-Imp inh: -2.7; B2AR ag: 1

What do the screens show for `CCc1ccccc1N(C(=O)c1cccs1)C1C=CS(=O)(=O)C1` (stereo not given)?
Calb FLC: 9; UCH37 inh: 2.8; Bfl-1 A1 inh: 1.3; Beta apoptosis: 0; T cruzi inh: 0; LANA-H2A inh: 0.0; RanGTP-Imp inh: -2.2; B2AR ag: -7

Results for CCOc1ccccc1/C=C/C(=O)NCC(=O)N1CCC(N(C)C2CCCCC2C)CC1 (stereo not given) ?
Calb FLC: 2; UCH37 inh: -23; Bfl-1 A1 inh: -1.1; Beta apoptosis: -2; T cruzi inh: 23; LANA-H2A inh: 0.4; RanGTP-Imp inh: 4.7; B2AR ag: -1

How did Cn1cccc1/C=N/NC(=O)CSc1nc2ccccc2[nH]1 do in these assays?
Calb FLC: 10; Bfl-1 A1 inh: 0.1; Beta apoptosis: -3; T cruzi inh: -10; LANA-H2A inh: 6.0; RanGTP-Imp inh: 0.8; B2AR ag: -12

How did O=C(/C=C/NCc1cccnc1)c1ccc(-c2ccccc2)cc1 do in these assays?
Calb FLC: -4; UCH37 inh: 7.7; Bfl-1 A1 inh: 0.4; Beta apoptosis: -4; T cruzi inh: 52; LANA-H2A inh: -7.9; RanGTP-Imp inh: -0.1; B2AR ag: -2

What do the screens show for `COc1ccccc1CN1C(=O)[C@@H]2C(CC(N)=O)NC3(C(=O)Nc4c3ccc(Cl)c4C)[C@@H]2C1=O` (stereo not given in full)?
Calb FLC: -4; UCH37 inh: 1.1; Bfl-1 A1 inh: -0.2; Beta apoptosis: -4; T cruzi inh: -17; LANA-H2A inh: -0.7; RanGTP-Imp inh: 1.5; B2AR ag: -7

Results for O=C(CCN1CCN(CCO)CC1)Nc1ccc(OCc2ccccc2)cc1 ?
Calb FLC: 17; UCH37 inh: 1.6; Bfl-1 A1 inh: 0.2; Beta apoptosis: -12; T cruzi inh: 7; LANA-H2A inh: -1.6; RanGTP-Imp inh: -0.6; B2AR ag: 11

Results for Cc1ccc(NC(=S)NNC(=S)Nc2ccc(C)cc2C)cc1 ?
Calb FLC: 50; Bfl-1 A1 inh: -0.4; Beta apoptosis: -4; T cruzi inh: 21; LANA-H2A inh: -1.2; RanGTP-Imp inh: 5.2; B2AR ag: 5

What do the screens show for `COc1ccc(N2CCN(C(=O)C(CCSC)N=C3NS(=O)(=O)c4ccccc43)CC2)cc1` (stereo not given)?
Calb FLC: -1; UCH37 inh: 2.1; Bfl-1 A1 inh: 2.0; Beta apoptosis: 1; T cruzi inh: -17; LANA-H2A inh: 2.5; RanGTP-Imp inh: 5.2; B2AR ag: 6

How did CCN(CC)C(=O)c1sc(NC(=O)c2cccnc2)c(C(=O)OC)c1C do in these assays?
Calb FLC: -3; UCH37 inh: 9.0; Bfl-1 A1 inh: 1.2; Beta apoptosis: -5; T cruzi inh: -8; LANA-H2A inh: 1.1; RanGTP-Imp inh: -0.1; B2AR ag: -15

What do the screens show for `O=C(N/N=C/c1ccccc1O)c1ccncc1`?
Calb FLC: -19; Bfl-1 A1 inh: -1.2; Beta apoptosis: 29; T cruzi inh: -10; LANA-H2A inh: 5.3; RanGTP-Imp inh: 0.9; B2AR ag: -6

Results for Cc1cc(N2CCOCC2)nc2ccc(NC(=S)N3CCCCC3C)cc12 (stereo not given) ?
Calb FLC: 27; UCH37 inh: -11; Bfl-1 A1 inh: -0.3; Beta apoptosis: 3; T cruzi inh: 42; LANA-H2A inh: 11; RanGTP-Imp inh: 1.7; B2AR ag: 16

What do the screens show for `COc1ccc(Nc2nc(N3CCCC3)nc(N3CCCC3)n2)c(OC)c1`?
Calb FLC: 5; UCH37 inh: 4.5; Bfl-1 A1 inh: 0.5; Beta apoptosis: 3; T cruzi inh: inconclusive; LANA-H2A inh: 2.2; RanGTP-Imp inh: -9.1; B2AR ag: 16

How did Cc1ccc(OCc2ccc(C(=O)N3CCCC3)o2)cc1C do in these assays?
Calb FLC: -7; UCH37 inh: 0.4; Bfl-1 A1 inh: -1.1; Beta apoptosis: -4; T cruzi inh: 10; LANA-H2A inh: -5.0; RanGTP-Imp inh: 4.8; B2AR ag: 3

What do the screens show for `O=C(COC(=O)CCOc1ccccc1)NCCc1ccccc1`?
Calb FLC: 1; UCH37 inh: 2.0; Bfl-1 A1 inh: -1.1; Beta apoptosis: -5; T cruzi inh: -1; LANA-H2A inh: 0.8; RanGTP-Imp inh: 1.8; B2AR ag: 9

How did CN(C(=S)NC(=O)c1ccc(F)cc1)C1CCCCC1 do in these assays?
Calb FLC: -6; UCH37 inh: 4.8; Bfl-1 A1 inh: 0.6; Beta apoptosis: -5; T cruzi inh: -18; LANA-H2A inh: 1.3; RanGTP-Imp inh: 1.6; B2AR ag: 3

What do the screens show for `Cc1ccc(C(c2nnnn2C(C)(C)C)N(Cc2ccco2)Cc2cccs2)cc1` (stereo not given)?
Calb FLC: 2; UCH37 inh: 0.5; Bfl-1 A1 inh: 0.7; Beta apoptosis: 7; T cruzi inh: 64*; LANA-H2A inh: 3.4; RanGTP-Imp inh: -2.1; B2AR ag: 3

How did COc1ccccc1N1CCN(C(=O)c2ccc(Br)o2)CC1 do in these assays?
UCH37 inh: 1.1; Bfl-1 A1 inh: 0.6; Beta apoptosis: -1; LANA-H2A inh: 0.0; B2AR ag: -2

What do the screens show for `Cn1ncc2c(Nc3cc(Cl)cc(Cl)c3)ncnc21`?
Calb FLC: 1; UCH37 inh: -1.6; Bfl-1 A1 inh: 0.4; Beta apoptosis: 13; T cruzi inh: 23; LANA-H2A inh: 0.4; RanGTP-Imp inh: 5.4; B2AR ag: 0

Results for Cc1cccc(C(=O)O/N=C(\c2ccccc2)c2cccnc2)c1 ?
Calb FLC: 9; Bfl-1 A1 inh: 0.4; Beta apoptosis: -13; T cruzi inh: -7; LANA-H2A inh: -5.4; RanGTP-Imp inh: 5.2; B2AR ag: 1

Results for O=C1c2ccccc2C(Nc2ccc3c(c2)OCO3)N1Cc1ccco1 (stereo not given) ?
Calb FLC: -4; UCH37 inh: -0.4; Bfl-1 A1 inh: 0.6; Beta apoptosis: 5; T cruzi inh: -10; LANA-H2A inh: -0.1; RanGTP-Imp inh: 0.0; B2AR ag: 8

Results for Cc1ccc(O)c(C(=O)c2cnc3c(c2)c(-c2ccc(F)cc2)c(C#N)c(=O)n3C)c1 ?
Calb FLC: -39; UCH37 inh: 8.0; Bfl-1 A1 inh: -0.4; Beta apoptosis: 8; T cruzi inh: 2; LANA-H2A inh: 3.8; RanGTP-Imp inh: 1.9; B2AR ag: 13

How did COc1ccc2oc(=N)c(C(=O)NCc3ccccc3)cc2c1 do in these assays?
Calb FLC: -3; UCH37 inh: -23; Bfl-1 A1 inh: -0.5; Beta apoptosis: -13; T cruzi inh: -11; LANA-H2A inh: 1.8; RanGTP-Imp inh: 2.3; B2AR ag: 11

Assay outcomes: PubChem BioAssay, several laboratories
